Vaccinia Venus = vaccinia inhibition (Venus reporter); Vaccinia virus Venus reporter expression, fluorescence; AID 720580; 330,000 tested, 0.46% active; Potency, µM (top dose mostly 36.5 µM), for inactives: top-dose activity change, negative = inhibition, hits mostly inhibitors; active means well fitted inhibition curve with a large enough effect; inconclusive means small, poorly fitted or top-dose-only effect; inactive means no such curve, though single readings can be large or run the other way; tested in A549 cells; further: nearly all actives have a fitted effect of over 30% in size; inactives centre near -10
VACV mCherry inh = vaccinia inhibition (mCherry reporter); Vaccinia virus mCherry reporter infection, fluorescence; about a quarter of the inactives have no number; Potency, µM (doses to about 36.5 µM), for inactives: at the top dose activity change, negative = inhibition, usual class: inhibitors; 310,000 tested, 0.63% active; AID 720579; active = well fitted inhibition curve with a large enough effect; inconclusive = small, poorly fitted or top-dose-only effect; inactive = no such curve, though single readings can be large or run the other way; tested in A549 cells; further: nearly all actives have a fitted effect of over 35% in size; inactives centre near -10
Starred values were filed as active, the others as inactive; i = inactive; u = inconclusive; x = no result given; & = joins results of further samples; [ ] = remark or other dose. On the % scale 0 is the no-effect control and ±100 the full control effect; potency means the concentration at half of the fitted maximal effect.

A first look, seven compounds:
item | mol | Vaccinia Venus | VACV mCherry inh
1 | c1ccc(CC2CCN(C(c3cccs3)c3nnnn3C3CCCC3)CC2)cc1 (configuration not stated) | -2% | -1%
2 | CCCC1CCc2c(sc(N)c2C(N)=O)C1 (configuration not stated) | -16% | u
3 | CCOC(=O)c1sc(N)c(C(=O)OCC)c1COC(=O)C1CC(=O)N(Cc2ccco2)C1 (configuration not stated) | -22% | x
4 | C[C@@H]1CN([C@H](C)CO)C(=O)c2c(c3ccccc3n2C)-c2ccccc2CO[C@H]1CN(C)C(=O)c1cc(Cl)cc(Cl)c1 | -10% | -4%
5 | OCC[C@@H]1C[C@H](O)[C@@H](O)[C@@]2(CCCO2)O1 | -2% | i
6 | Cc1ccc(C)c(OCC(=O)Nc2ccccc2C(=O)N2CCOCC2)c1 | -15% | -7%
7 | COc1cc(C(=O)O[C@H]2C/C(C)=C/CC[C@]3(C)O[C@@H]3C(O)C2C(C)C)cc(OC)c1OC (some centres not stated) | -11% | i

This part in full, from the start:
item | mol | Vaccinia Venus | VACV mCherry inh
1 | c1ccc(CC2CCN(C(c3cccs3)c3nnnn3C3CCCC3)CC2)cc1 (configuration not stated) | -2% | -1%
2 | CCCC1CCc2c(sc(N)c2C(N)=O)C1 (configuration not stated) | -16% | u
3 | CCOC(=O)c1sc(N)c(C(=O)OCC)c1COC(=O)C1CC(=O)N(Cc2ccco2)C1 (configuration not stated) | -22% | x
4 | C[C@@H]1CN([C@H](C)CO)C(=O)c2c(c3ccccc3n2C)-c2ccccc2CO[C@H]1CN(C)C(=O)c1cc(Cl)cc(Cl)c1 | -10% | -4%
5 | OCC[C@@H]1C[C@H](O)[C@@H](O)[C@@]2(CCCO2)O1 | -2% | i
6 | Cc1ccc(C)c(OCC(=O)Nc2ccccc2C(=O)N2CCOCC2)c1 | -15% | -7%
7 | COc1cc(C(=O)O[C@H]2C/C(C)=C/CC[C@]3(C)O[C@@H]3C(O)C2C(C)C)cc(OC)c1OC (some centres not stated) | -11% | i
8 | CCOCCc1nn2c(=O)cc(COC(=O)C3CCCCC3)nc2s1 | -6% | 3%
9 | Cc1cc(C)c2nc(N3CCCC(C(=O)NCCN4CCOCC4)C3)sc2c1 (configuration not stated) | -7% | -12%
10 | CCC1Oc2ccc(C)cc2N(CC(=O)NCc2ccc(OC)cc2)C1=O (configuration not stated) | -2% | 2%
11 | CCOC(=O)c1ccc(-c2c(-c3ccc(OC)cc3)oc(=O)c3cc(OC)c(OC)cc23)cc1F | -9% | u
12 | CN1N=C(C(=O)N2CCc3c([nH]c4ccccc34)C2c2ccccc2Cl)CCC1=O (configuration not stated) | 2% | -8%
13 | CCOc1cc(/C=C2/C(=N)N3N=C(C)SC3=NC2=O)ccc1OS(=O)(=O)c1ccc(C)cc1 | -11% | -21%
14 | Cc1ccc(Nc2c3c(nc4nncn24)CCC3)cc1 | -18% | -28%
15 | Cc1cc[n+](CC(=O)Nc2ccccc2)cc1 | -7% | -18%
16 | Cc1ccc(C2=Nc3ccccc3N(CC(=O)NCc3ccc(F)cc3)C(=O)C2)cc1C | -20% | u
17 | COc1ccc(C(=O)NC2CCSC2=O)cc1 (configuration not stated) | -17% | -8%
18 | CCCC(=O)Nc1ccccc1C(=O)OCc1cc(=O)n2nc(C(C)C)sc2n1 | -21% | -28%
19 | COc1ccc(CCC(=O)Nc2cc3c4c(c2)CC(=O)N4CCC3)cc1 | -19% | i
20 | COc1ccc(C(=O)NC(=S)Nc2cccc(Cl)c2N2CCOCC2)cc1[N+](=O)[O-] | -28% | -23%
21 | CC1(C(=O)NS(=O)(=O)c2cccc(Cl)c2)CCN1C(=O)CC1CCCC1 (configuration not stated) | 3% | 25%
22 | C=CCNC(=O)COC(=O)COc1ccc(Cl)cc1 | -12% | i
23 | Cc1ccccc1NC(=S)N(CCN1CCCCC1)Cc1ccco1 | -11% | i
24 | CCOC(=O)[C@]12Cc3cc(Cl)ccc3[C@H]1N(C)C(=O)c1ccccc12 | 1% | -14%
25 | CCOC(=O)c1ccc2c(c1)N(CC(=O)N(C)c1ccccc1)C(=O)c1ccccc1S2 | -14% | -20%
26 | CC(C)C(C(=O)NCC1CCCO1)N(C(=O)CNS(=O)(=O)c1ccc(F)cc1)C1CCCCC1 (configuration not stated) | 1% | 1%
27 | COc1ccc(/C=N\NC(=O)c2ccccc2OC)cc1COc1c(F)c(F)c(F)c(F)c1F | -12% | i
28 | CC(C)CN(C(=O)CN1CCN(c2ccccc2O)CC1)c1c(N)n(CC(C)C)c(=O)[nH]c1=O | -13% | -16%
29 | Cc1ccc(NNC(=O)Nc2ccc(Cl)cc2)nn1 | 8% | -27%
30 | COc1ccccc1NC(=O)c1c(NCc2ccc(OC)c(OC)c2OC)sc2c1CCC2 | -4% | -9%
31 | C=CCNS(=O)(=O)c1ccc(C(=O)OCc2cc(=O)oc3cc(OC)ccc23)cc1 | -9% | i
32 | COc1ccc(NC(=O)C2CCN(c3cc(C)nc4c(-c5ccc(Cl)cc5)c(C)nn34)CC2)cc1 | -6% | -9%
33 | O=S(=O)(c1cc(F)cc(F)c1)N1CCN(c2ncccn2)CC1 | -21% | x
34 | CC(C)C[C@@H](CO)N1CCNCCC1=O | -9%&-22% | -18%
35 | CCOC(=O)N/N=C\c1ccc(OC(=O)c2ccc3c(c2)OCO3)cc1 | -6% | -1%
36 | CCOC(=O)c1c(C)[nH]c(C)c1S(=O)(=O)N(C)CC(=O)Nc1ccc(CC)cc1 | -9% | -20%
37 | Cn1c(=O)[nH]c(=O)c2c1nc1n2CC(COc2ccc3ccccc3c2)O1 (configuration not stated) | -8%[7.34 µM] | -13%[7.34 µM]
38 | CC(C)c1ccc(OC(=O)c2ccc3c(=O)n4c(nc3c2)CCC4)cc1 | 5% | -10%
39 | c1ccc(CN2CCN(c3ncnc4c3[nH]c3ccccc34)CC2)cc1 | u | 7.1µM*
40 | O=C(NC1CCN(C(=S)Nc2ccc(F)cc2)CC1)c1ccco1 | -7% | -1%
41 | Cc1cc(C)cc(N(CCC#N)C(=O)COC(=O)c2ccccc2SCC(=O)N2CCCC2)c1 | -16% | -11%
42 | Cc1c[n+]([O-])cc(C)c1Oc1ccccc1 | -13% | i
43 | Nc1nc(-c2ccc(Br)cc2)cc(C(F)(F)F)n1 | -15% | i
44 | O=C1CC2(CCCC2)Oc2ccccc21 | -21% | i
45 | O=c1c(-c2ccco2)[n+]([O-])c2ccccc2n1OCc1c(F)cccc1F | -23%[7.34 µM] | -13%[7.34 µM]
46 | CC(=O)c1cccc(NC(=O)CSc2nc(=O)n(Cc3ccco3)c3c2CCC3)c1 | -12% | -19%
47 | CCOC(=O)c1sc(NC(=O)CN2CCCC2)c(C(=O)OCC)c1C | 3% | 1%
48 | CSc1cccc(NC(=O)C2C3C=CC4(O3)C2C(=O)N(CCCN2CCOCC2)C4C(=O)NC2CCCCC2)c1 (configuration not stated) | 4% | -8%
49 | COc1ccccc1C=NN=C1c2ccccc2-c2ccccc21 | -3% | -16%
50 | O=C(Cc1ccccc1F)Nc1nc(-c2cccs2)cs1 | -20% | -14%
51 | O=C(Nc1nccs1)c1ccc(-c2ccc([N+](=O)[O-])cc2)o1 | 2% | -13%
52 | C/C(=N\NC(=S)Nc1c(C)cccc1C)c1ccc(O)cc1 | -16% | u
53 | CCn1nnc2c(=O)oc3ccccc3c21 | -2% | -5%
54 | CN(C)N1C(N)=C(C#N)C(c2cccnc2)C2=C1CCCC2=O (configuration not stated) | -5% | -6%
55 | COc1ccc(NC(=O)c2ccc3c(=O)n4nc(Nc5cccc(Cl)c5C)sc4nc3c2)cc1 | u | u
56 | Cc1ccc2nc(-c3ccc(NC(=O)Cc4cccs4)cc3)[nH]c2c1 | 13µM* | u

Additional records.
item | mol | Vaccinia Venus | VACV mCherry inh
57 | COc1ccccc1-c1nc(SCC(=O)Nc2ccc(C)c(C)c2)n[nH]1 | -3% | -2%
58 | N#Cc1ccc(OCC(=O)N2CCN(S(=O)(=O)c3cccc(Cl)c3)CC2)cc1 | -16% | -5%
59 | CC(OC(=O)c1nccnc1N)C(=O)Nc1ccc(S(=O)(=O)N2CCCC2)cc1 (configuration not stated) | -7% | -14%
60 | O=C(Nc1cccc(-c2cc3ccccc3oc2=O)c1)c1ccc(Br)o1 | -19% | -15%[1.46 µM]
61 | CN(C)CCNC(=O)C(=O)NCC1OCCN1S(=O)(=O)c1ccc(F)cc1 (configuration not stated) | -2% | i
62 | COc1cc(C(=O)CSc2nnc(-c3ccc(O)cc3)n2CC2CCCO2)ccc1NC(C)=O (configuration not stated) | 0% | 0%
63 | COc1ccc(-c2cc(C3CC3)nc(SCC(=O)c3cccs3)c2C#N)cc1 | -10% | i
64 | CC1Oc2ccccc2C=C1/C=N/NC(=O)[C@@H](C)NC(=O)OC(C)(C)C (some centres not stated) | -20% | -5%
65 | O=[N+]([O-])c1ccc(Cc2ccccn2)c([N+](=O)[O-])c1 | -15% | -13%
66 | C[C@H]1CN=C(Nc2ccccc2)N1CCC1CCCC1 | -8% | i
67 | O=C(c1cc([N+](=O)[O-])ccc1N1CCCC1)N1CCCC1 | -11% | -3%
68 | CC(C)c1ccc(NC(=O)Nc2nc(CN)cs2)cc1 | -4% | -9%
69 | O=C(C1=C(O)C(=O)N(Cc2ccco2)C1c1cccc([N+](=O)[O-])c1)c1ccco1 (configuration not stated) | -11% | -15%
70 | Cc1ccc(S(=O)(=O)N2CCCC2c2cccnc2)cc1 (configuration not stated) | -9% | -14%
71 | COc1ccc(NC(=O)CSc2ncnc3sc(C)cc23)cc1 | 24% | 14%
72 | COc1ccc(S(=O)(=O)N2CCCCCC2)cc1N(C)S(=O)(=O)c1ccc(Cl)cc1 | -27% | u
73 | Cc1cc(C)cc(NC(=O)CSc2nc(=O)[nH]c3c2CCC3)c1 | -3%[7.34 µM] | -1%[7.34 µM]
74 | CCOc1ccc(S(=O)(=O)NCCc2ccccn2)cc1 | -4% | -2%
75 | CCc1nc2ccc(C(=O)NCCOc3ccc(OC)cc3)cn2c1N(C)CCCc1ccccc1 | -16% | -23%
76 | Cc1ccc2occ(/C=C/C(=O)O)c(=O)c2c1 | 15% | -9%
77 | O=C(CSCc1cccc(CSCC(=O)Nc2ccc3ccccc3c2)n1)Nc1ccc2ccccc2c1 | 11µM* | 11µM*
78 | Cc1ncoc1C(=O)NCc1ccccc1Cl | -5% | -9%
79 | COc1cccc(CC2(CO)CCCN(Cc3ccc4c(c3)OCCO4)C2)c1 (configuration not stated) | -27% | -19%
80 | O=C(N/N=C/C(Cl)=C\c1ccccc1)c1cccs1 | -14% | -6%
81 | CN(Cc1ccc(C(C)(C)C)cc1)C(=O)C1CCN(C(=O)Nc2ccccc2)CC1 | -11% | -14%
82 | Cc1nn(C)c(Cl)c1CN1CCCC(C(=O)Nc2cccc(-n3cccn3)c2)C1 (configuration not stated) | -23% | -24%
83 | Cc1ccccc1SCC(=O)Nc1ccc(N2CCOCC2)cc1 | -11% | i
84 | COc1ccc(C(NC(=O)/C=C/c2ccco2)c2ccc(OC)cc2)cc1 | -7% | i
85 | COc1cccc(-c2noc(Cn3nc(C)c([N+](=O)[O-])c3C)n2)c1 | -6% | -4%[1.46 µM]
86 | Cc1ccc(NC(=O)CN(C)C(=O)/C=C/c2cccc(F)c2)cc1 | -1% | u
87 | O=S(=O)(Cc1cc(-c2ccccc2)no1)c1ccccc1 | -23% | -11%
88 | O=C(O)CSCC(=O)Nc1ccccn1 | -2%[7.34 µM] | -4%[7.34 µM]
89 | CCN(CC)S(=O)(=O)c1cc(NC(=O)C(C)OC(=O)c2[nH]c(C)c(C(C)=O)c2C)ccc1C (configuration not stated) | u | -26%
90 | Cc1ccc(SCC(=O)N2c3ccccc3Sc3ccccc32)cc1 | -4% | x
91 | Cc1ccc(OCC(=O)NN2C(=O)c3ccccc3C2=O)c(C)c1 | 5% | x
92 | CC(=O)C(C)Oc1ccc(Cc2ncc(C(F)(F)F)cc2Cl)cc1 (configuration not stated) | -13% | -9%
93 | CN(C(=O)CSc1cc(Cl)ccc1Cl)C1CCS(=O)(=O)C1 (configuration not stated) | -12% | -15%
94 | CCN(CC)CCCNC(=O)c1nn(-c2cccc(OC)c2)c(=O)c2ccccc12 | 3% | x
95 | COc1ccc(NS(=O)(=O)c2cccc(NC(=O)c3cnccn3)c2)cc1Br | -18% | i
96 | COc1ccc(CCNC(=O)c2cc(=O)n(C)c(=O)n2C)cc1OC | -5% | -2%
97 | COC(=O)[C@]12CCCCC=C1N(Cc1cccc3ccccc13)C(=O)[C@H](CC(=O)NCc1cccc(C(F)(F)F)c1)C2 | -3% | -13%
98 | Cc1cc(NC(=O)c2ccco2)no1 | -1% | -16%
99 | COc1cccc(/C=N/Nc2ncnc3scc(-c4ccccc4)c23)c1OC | u | i
100 | COc1ccc(OC(=O)c2cc(-c3ccc4c(c3)OCCO4)on2)cc1 | 2% | 3%
101 | Cc1nc2ccc(NC(=O)NC(=O)c3c(Cl)cccc3Cl)cc2o1 | -23% | i
102 | CCN(CC)S(=O)(=O)c1ccc2[nH]cc(C(=O)NCCc3ccc(OC)c(OC)c3)c(=O)c2c1 | 4% | x
103 | Cc1cc(C(=O)N2CCCC(C(=O)c3cc(F)ccc3F)C2)c(C)o1 (configuration not stated) | -8% | -15%
104 | CC(C)CN1C(=O)C(=O)N(CC(=O)NCCCc2ccccc2)C1=O | -13% | -19%
105 | CCOC(=O)[C@H]1[C@H]2COc3ccc(Cl)cc3[C@@H]2N2C(=O)CN(CC3CCCO3)C(=O)[C@@]12C (some centres not stated) | -6% | -12%
106 | OC(CCN1CCC2(CC1)OCCO2)C(F)(F)F (configuration not stated) | -8% | i
107 | Cc1c(Cl)cccc1NC(=S)NCC(C)C | -17% | -5%
108 | CC1CCC(C(C)C)C(OC(=O)COC(=O)c2ccccc2N)C1 (configuration not stated) | -11% | -5%
109 | O=C(c1ccc2c(c1)N(Cc1ccccc1F)C(=O)c1ccccc1S2(=O)=O)N1CCC(Cc2ccccc2)CC1 | -4% | 1%
